E coli growth: E. coli growth inhibition | Escherichia coli growth, OD600, 23 h; stronger effect = lower value | AID 1053175 | 330,000 tested, 0.21% active | OD600 absorbance (no concentration beside the values);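 active = OD600 absorbance below the run mean of sample wells minus 3.6 SD, in any replicate, cut at about 0.56 in these data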;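 also: stock transfer was 300 nL into about 60 µL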
UCH37 DUB inh: inhibitors of human deubiquitinating enzyme UCH37. Q9Y5K5. purified proteasome/UCH37, Ub-AMC cleavage fluorescence. inhibition, % (no concentration beside the values). 330,000 tested, 0.33% active. AID 588478;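 active = mean of two replicates above 20%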;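 also: 0% = compound-free wells with enzyme and 100% = wells lacking proteasome; stock transfer was 100 nL into about 20 µL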
Target sequence (Q9Y5K5 whole entry, looked up): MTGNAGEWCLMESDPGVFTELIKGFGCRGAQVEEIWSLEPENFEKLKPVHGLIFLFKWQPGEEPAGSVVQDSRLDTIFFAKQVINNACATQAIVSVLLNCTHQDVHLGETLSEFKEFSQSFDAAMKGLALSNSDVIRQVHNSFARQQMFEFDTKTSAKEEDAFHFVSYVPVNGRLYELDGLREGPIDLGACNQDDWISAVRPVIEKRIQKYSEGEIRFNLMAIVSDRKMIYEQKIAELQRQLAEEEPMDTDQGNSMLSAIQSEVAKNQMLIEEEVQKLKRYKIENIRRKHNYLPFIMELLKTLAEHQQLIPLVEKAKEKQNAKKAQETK
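Material: human UCH37 enzyme supplied as purified proteasome complex. Measure: % inhibition of Ub-AMC cleavage fluorescence. Medium: pH 7.4 Tris-HCl (50 mM) with ovalbumin, ATP-MgCl2, DTT. Times: 30 min preincubation with enzyme, 25 min cleavage at room temperature. Detection: AMC fluorescence intensity at 355/460 nm.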
* marks the source's active call; other numbers are inactive results. The list is partial, so the mix of outcomes need not match the whole.

SMILES	E coli growth	UCH37 DUB inh
O=[N+]([O-])c1ccc(NN=Cc2sc(N3CCOCC3)nc2-c2ccccc2)c(S(=O)(=O)Nc2ccc(Cl)cc2)c1	0.78	6.7
C=CCNC(=O)CC(=O)NN=Cc1cccs1	0.73	1.5
COC(=O)c1ccc(COc2ccccc2C=NNS(=O)(=O)c2ccccc2)cc1	0.77	0.9
COc1cccc(C=NNC(=O)c2nnn(-c3nonc3N)c2CN(C)c2ccccc2)c1	0.7	2.8
CC(=NNc1nc(Cl)c(Cl)cc1Cl)c1ccc(S(=O)(=O)NCc2ccco2)cc1	0.71	0.2
CN(C)c1ccc(C(=O)NN=Cc2ccccn2)cc1	0.68	12
COc1ccc(OC)c(-c2cc(C(=O)NN=C(C)c3cccnc3)c3ccccc3n2)c1	0.7	4.0
Oc1ccc(C=NNC(=S)Nc2cccnc2)cc1	0.67	9.9
O=C(ON=Cc1ccc(Br)cc1)c1ccc(F)cc1	0.67	3.5
C(=Nn1cnnc1)c1cccnc1	0.68	-0.9
Cc1ccccc1-n1c(=C(C#N)C(=O)Nc2ccccc2)sc(=Cc2ccco2)c1=O	0.72	2.7
CC(CCc1ccc2c(c1)OCO2)=NNC(=O)c1ccccc1	0.71	4.5
COC(=O)c1ccc(C=NNC(=O)C(=O)NCC2CCCO2)cc1 (stereo not given)	0.67	2.6
O=C(CO)NN=Cc1cccc(Cl)c1Cl	0.59	4.4
CN=c1scc(-c2ccc(OC)cc2)n1N=C(C)c1cccnc1	0.63	4.9
C(=NNC1=Nc2cccc3cccc1c23)c1ccccn1	0.63	9.5
CC(=NNS(=O)(=O)c1cccc([N+](=O)[O-])c1)c1ccc2c(c1)OCO2	0.68	1.0
C/C(C=Nn1c(-c2ccco2)n[nH]c1=S)=C\c1ccccc1	0.66	2.0
O=[N+]([O-])c1ccc(S(=O)(=O)NN=Cc2cccs2)cc1	0.7	-0.7
CCn1c(SCC(=O)NN=C/C(C)=C/c2ccco2)nnc1-c1ccccc1	0.67	8.7
O=C1/C(=C/c2cccc(Br)c2)SC(=S)N1N=Cc1cc([N+](=O)[O-])ccc1O	0.73	1.3
COc1cc(C=NNc2nc3ccccc3[nH]2)cc(Br)c1OCC(=O)N(C)C	0.69	-5.6
CCOc1ccc(C=NNC(N)=S)cc1	0.69	7.8
Cc1c(Cl)c([N+](=O)[O-])nn1Cc1ccc(C(=O)NN=Cc2cc(Cl)ccc2O)o1	0.76	4.3
CSC(=S)NN=Cc1ccc(Br)cc1	0.71	3.7
CCc1ccc(C(C)=NNC(=O)c2ccccn2)cc1	0.63	4.4
CON=Cc1c(-c2ccc(Cl)cc2)nc2cc(C)ccn12	0.66	-58
Cc1cc(C)nc(SCC(=O)NN=Cc2cccc([N+](=O)[O-])c2)n1	0.67	2.2
c1ccc(C2CC(=NN3CCOCC3)c3ccccc3O2)cc1 (stereo not given)	0.7	2.5
COc1ccc(C(CC2(O)C(=O)Nc3ccccc32)=NO)cc1 (stereo not given)	0.69	2.8

Reprinted at random: 2 compounds from above, in no set order.
SMILES	E coli growth	UCH37 DUB inh
COc1ccc(C(CC2(O)C(=O)Nc3ccccc32)=NO)cc1 (stereo not given)	0.69	2.8
C/C(C=Nn1c(-c2ccco2)n[nH]c1=S)=C\c1ccccc1	0.66	2.0

Following part:
SMILES	E coli growth	UCH37 DUB inh
O=C(O)COc1ccccc1C=NNC(=O)c1cc2ccccc2cc1O	0.7	12
Brc1ccc(-c2ccc(C=NNc3nc(N4CCOCC4)nc(N4CCOCC4)n3)o2)cc1	0.69	-39
Cc1ccc(C(=O)C=CNCc2ccccc2)cc1	0.68	8.8
COC(=O)c1ccc(COc2ccc(C=NNC(=O)C(=O)Nc3ccc(OC)cc3)cc2OC)o1	0.69	3.0
COc1ccc(Oc2ccc(C=NNC(=O)c3cccnc3)cc2[N+](=O)[O-])cc1	0.67	6.2
CCON=C(C)c1c(O)cc(C(C)(C)C)n(-c2ccccc2)c1=O	0.7	-3.3
O=C(CCc1ccc(S(=O)(=O)N2CCOCC2)cc1)NN=Cc1ccc(O)c(O)c1O	0.64	7.4
COc1ccc(C=NNc2nc(N3CCCCC3)nc(N3CCCCC3)n2)cc1[N+](=O)[O-]	0.64	5.4
NC(=O)NN=Cc1c(F)c(F)c(F)c(F)c1F	0.72	3.1
O=C(NN=Cc1ccc(CNS(=O)(=O)c2ccc(Cl)cc2)o1)C(=O)Nc1ccc(Oc2ccccc2)cc1	0.63	0.6
CC(=O)Nc1ccc(NC2=CC(=NS(=O)(=O)c3cccs3)c3ccccc3C2=O)cc1	0.67	29*
COc1ccc(C=NN2C(C)CCCC2C)cc1O (stereo not given)	0.68	1.1
O=C(CNC(=O)c1ccccn1)NN=Cc1ccc2c(c1)OCO2	0.66	3.3
CC(CC(=O)Nc1cc(C)ccn1)=NNC(=O)C(=O)Nc1cccc(C)c1	0.71	-0.9
CCc1nnc(NN=Cc2ccccc2F)n1N	0.61	3.8
COc1ccc(C=NNC(=O)c2cccc(F)c2)cc1COc1ccccc1	0.65	-1.4
COc1cc(C=NNC(=O)c2cc(C)oc2C)ccc1OCc1ccccc1	0.68	7.2
Cc1nn(-c2ccccc2)c(N2CCCC2)c1C=NNC(=O)c1cccc(S(=O)(=O)Nc2ccc(Cl)cc2)c1	0.72	-48
Cc1cc(C=NNS(=O)(=O)c2ccc(F)c(Cl)c2)no1	0.71	3.9
CCC(=O)Nc1ccc(C(=O)NN=Cc2cc(Br)c(OC)cc2OC)cc1	0.74	-0.4
Cc1ccc(S(=O)(=O)N=C2C=C(C3C(=O)CC(C)(C)CC3=O)C(=O)c3ccccc32)cc1	0.65	8.9
CNC(=S)NN=C(C)c1cccc(C(F)(F)F)c1	0.67	-1.0
CC(=NOC(=O)c1ccc(C)cc1)c1c(C)nc2cc(C)ccn12	0.64	-0.9
COc1cc(C=NNC2=NCCCCC2)ccc1O	0.69	-0.6
CC(=NNC(=O)c1ccco1)c1ccc(C(=O)O)s1	0.69	14
Cc1cc(-c2n[nH]c(=S)n2N=Cc2c[nH]c3ccccc23)n[nH]1	0.67	3.6
Cc1cccc(C=NNC(=O)Cc2ccc(Cl)cc2)c1O	0.68	1.2
Cc1onc(-c2ccccc2)c1-c1csc(NN=Cc2ccccc2)n1	0.68	-11
CC(C)c1c(C(=O)NN=Cc2ccccc2C(=O)O)nnn1-c1nonc1N	0.71	7.4
CC(CC(=O)NC1CCCC1)=NNC(=O)C1CCCCC1	0.69	5.1

Records listed so far marked active in UCH37 DUB inh:
canonical_smiles | UCH37 DUB inh
CC(=O)Nc1ccc(NC2=CC(=NS(=O)(=O)c3cccs3)c3ccccc3C2=O)cc1 | 29*

Later entries:
SMILES	E coli growth	UCH37 DUB inh
COc1ccc(C=Nn2cncn2)cc1COc1ccc(NC(C)=O)cc1	0.73	2.1
COc1ccc(CNC(=O)COC(=O)CON=C(C)c2ccc3c(c2)OCO3)cc1	0.68	3.0
O=S(=O)(NN=C1CC(c2ccccc2)Oc2ccccc21)c1ccc(Br)cc1 (stereo not given)	0.65	1.7
O=C(CNC(=O)c1cccc(F)c1)NN=Cc1cccnc1	0.69	2.9
Oc1c(C=NNc2cccc3cccnc23)ccc2ccccc12	0.71	-0.5
CC(CC(=O)Nc1ccc(Cl)c(Cl)c1)=NNC(=O)C(=O)N1CCCCC1	0.62	-2.4
Cc1ccc(CSc2nnc(SCC(=O)NN=Cc3c(C)nn(-c4ccccc4)c3C)s2)cc1	0.75	3.0
CCCOc1ccc(-c2c(C(=O)NN=C(C)c3cccnc3)nnn2-c2nonc2N)cc1	0.71	2.5
COc1ccc(C(C)=NNc2nc(C)cc(-c3ccccc3)n2)cc1	0.69	3.7
O=C(COc1ccc(Cl)cc1)NCC(=O)NN=Cc1cccs1	0.69	3.9
Cc1cc(C)nc(N=C(N)N2CCc3ccccc32)n1	0.69	3.8
Cc1ccc(NS(=O)(=O)c2cccc(C(=O)NN=Cc3c(C)nn(-c4ccccc4)c3N3CCCC3)c2)c(C)c1	0.73	-81
Cn1[nH]c(-c2ccccc2)c(C=NO)c1=O	0.65	2.3
O=C(NN=Cc1ccccc1O)c1cc[n+]([O-])cc1	0.64	8.9
O=c1c(=Cc2ccc(O)cc2)sc2nc3cc(Br)cnc3n12	0.65	-0.8

A different layout for four compounds above.
O=C(CNC(=O)c1cccc(F)c1)NN=Cc1cccnc1
  E coli growth = 0.69; UCH37 DUB inh = 2.9

Oc1c(C=NNc2cccc3cccnc23)ccc2ccccc12
  E coli growth = 0.71; UCH37 DUB inh = -0.5

CC(CC(=O)Nc1ccc(Cl)c(Cl)c1)=NNC(=O)C(=O)N1CCCCC1
  E coli growth = 0.62; UCH37 DUB inh = -2.4

Cc1ccc(CSc2nnc(SCC(=O)NN=Cc3c(C)nn(-c4ccccc4)c3C)s2)cc1
  E coli growth = 0.75; UCH37 DUB inh = 3.0

(continued)
SMILES	E coli growth	UCH37 DUB inh
CC1CCCCC1=NNc1ccc(S(N)(=O)=O)cc1[N+](=O)[O-] (stereo not given)	0.69	4.6
CCOc1ccc(C=NN2C(C)CCCC2C)cc1 (stereo not given)	0.69	1.6
O=C(NN=Cc1ccc(N2CCOCC2)o1)c1ccccc1[N+](=O)[O-]	0.67	15
CNN=C(Cc1nc2ccccc2[nH]1)c1ccc([N+](=O)[O-])cc1	0.72	7.6
CC(=NNc1ccc(C)c(Cl)c1)c1ccncc1	0.67	7.5
O=C(NN=Cc1ccccn1)c1ccc(NC(=O)c2cccc([N+](=O)[O-])c2)cc1	0.66	5.5
CC(=NNC(=O)CCC(=O)Nc1ccc(C)c(C)c1)C1CC1	0.74	0.8
O=C(CN1CCCc2ccccc21)NN=Cc1ccccc1	0.73	-3.8
COc1ccc(CCC(=O)NN=C(C)c2ccc3c(c2)OCO3)cc1	0.69	1.6
NC(=O)NN=Cc1cn(-c2ccccc2)nc1-c1ccccc1	0.69	2.1
Brc1ccsc1C=NNc1ccccc1	0.69	3.7
O=C(Cn1nc2n(c1=O)-c1ccccc1SC2)NN=Cc1cccs1	0.63	4.5
COc1ccccc1OCCOc1ccccc1C=Nn1cnnc1	0.67	0.6
CCOc1ccc(N(CC(=O)NN=Cc2ccccn2)S(=O)(=O)c2ccc(Cl)cc2)cc1	0.73	3.6
COC(C(=NO)c1ccc(Cl)cc1)c1ccccc1 (stereo not given)	0.66	4.9

3 of the entries above in order of their number in UCH37 DUB inh, descending.
| Structure | UCH37 DUB inh |
| --- | --- |
| O=C(NN=Cc1ccc(N2CCOCC2)o1)c1ccccc1[N+](=O)[O-] | 15 |
| CNN=C(Cc1nc2ccccc2[nH]1)c1ccc([N+](=O)[O-])cc1 | 7.6 |
| COC(C(=NO)c1ccc(Cl)cc1)c1ccccc1 (stereo not given) | 4.9 |

(further entries)
SMILES	E coli growth	UCH37 DUB inh
COc1cc(C=NNC(=O)CNS(=O)(=O)c2ccc(C)cc2)cc(OC)c1OC	0.69	0.1
C/C(C=Nn1c(-c2ccc(C)cc2)n[nH]c1=S)=C\c1ccco1	0.67	8.9
O=C(CNC(=O)c1ccc(Br)cc1)NN=Cc1ccc[nH]1	0.67	0.9
CC(CC(=O)Nc1ccccc1C(F)(F)F)=NNC(=O)c1cnccn1	0.74	-2.3
CC(=NNC(=O)COc1ccccc1)c1cccs1	0.63	2.0
COc1ccc(C(C)=NNc2nc(-c3ccc(Cl)cc3)cc(C(F)(F)F)n2)cc1OC	0.71	3.2
O=C(O)COc1ccccc1C=NNC(=O)c1cccc(S(=O)(=O)N2CCOCC2)c1	0.7	4.4
CCCCCCCCC(=O)NN=C(C)c1ccc(O)cc1O	0.68	-21
CC(C)(C)c1cc[n+](-c2[nH]c(=O)sc2C=N/N=C(\[O-])c2cccnc2)cc1	0.72	21*
COc1ccc(C=NNC(=O)CCCCCNC(=O)c2ccccc2)cc1	0.71	1.8
CC(=O)Oc1ccc(C=NNC(=O)C2CCCN2S(=O)(=O)c2ccc(Cl)cc2)cc1 (stereo not given)	0.73	-1.6
CC(C)(C)c1ccc2c(c1)OC(C(=O)NN=Cc1ccc([N+](=O)[O-])o1)CO2 (stereo not given)	0.6	5.2
C(=Nc1nc2ccccc2n1CCN1CCCCC1)c1ccc2c(c1)OCO2	0.68	4.5
O=C(NN=Cc1ccoc1)c1cccc([N+](=O)[O-])c1	0.69	-1.2
O=C1C2C3C=CC(CC3)C2C(=O)N1N=Cc1ccc(O)cc1 (stereo not given)	0.68	6.5
CC1(C)N=C(C=NO)CN1O	0.72	1.6
COc1ccc(/C=C/C(=O)Oc2ccc(C=NNC(=O)c3ccccc3)cc2)cc1OC	0.69	3.8
CCN1C(=O)C(=c2oc(=C3C=Cc4ccccc4N3CC)c(=O)n2CC)SC1=S	0.77	2.2
Cc1ccc(CSc2nnc(SCC(=O)NN=Cc3ccc(C(=O)O)cc3)s2)cc1	0.68	1.2
O=c1c2c3nc4ccccc4nc3n(N=Cc3ccco3)c2ncn1CCC1=CCCCC1	0.73	-9.8
COc1ccc(COC(=O)NN=C(C)CC(=O)Nc2ccc(Cl)cn2)cc1	0.69	1.0
CC(CC(=O)N1CCN(C=O)CC1)=NNC(=O)c1cccc([N+](=O)[O-])c1	0.73	3.1
FC(F)(F)c1nc2ccccc2nc1NN=Cc1ccc(Cl)cc1	0.76	4.5
Cc1nn(-c2ccccc2)c(Cl)c1C=NNC(=O)CCNc1n[nH]c(=O)[nH]c1=O	0.68	1.4
CCOC(=O)C1=C(C)N=c2sc(=Cc3cccc([N+](=O)[O-])c3O)c(=O)n2C1c1ccccc1 (stereo not given)	0.71	13
C/C(C=NNc1nnc2c(n1)[nH]c1ccccc12)=C\c1ccco1	0.67	5.2
CCCCCCCC(=O)NN=Cc1ccco1	0.72	2.8

Assay outcomes from PubChem.
